Source: PubChem BioAssay
KCNQ2 enhance: potentiators of rat KCNQ2 potassium channel; actives 0.54% (n = 310,000); CHO-K1 KCNQ2, FluxOR thallium flux fluorescence; active compounds read high; B-score at 10 µM;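 active = fluorescence ratio B-score at least 3 SD of library B-scores, with initial fluorescence B-score within 3 SD, cut at about 5.3 in these data; same plate scores as AID 2156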;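 note: B-score of peak minus minimum over baseline fluorescence ratio after K+ and Tl+ stimulus; positive B-score means potentiation of KCNQ2 with more thallium influx and brighter signal; only the inactives scoring about 0 or higher are listed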
Target sequence (O88943 whole entry, looked up): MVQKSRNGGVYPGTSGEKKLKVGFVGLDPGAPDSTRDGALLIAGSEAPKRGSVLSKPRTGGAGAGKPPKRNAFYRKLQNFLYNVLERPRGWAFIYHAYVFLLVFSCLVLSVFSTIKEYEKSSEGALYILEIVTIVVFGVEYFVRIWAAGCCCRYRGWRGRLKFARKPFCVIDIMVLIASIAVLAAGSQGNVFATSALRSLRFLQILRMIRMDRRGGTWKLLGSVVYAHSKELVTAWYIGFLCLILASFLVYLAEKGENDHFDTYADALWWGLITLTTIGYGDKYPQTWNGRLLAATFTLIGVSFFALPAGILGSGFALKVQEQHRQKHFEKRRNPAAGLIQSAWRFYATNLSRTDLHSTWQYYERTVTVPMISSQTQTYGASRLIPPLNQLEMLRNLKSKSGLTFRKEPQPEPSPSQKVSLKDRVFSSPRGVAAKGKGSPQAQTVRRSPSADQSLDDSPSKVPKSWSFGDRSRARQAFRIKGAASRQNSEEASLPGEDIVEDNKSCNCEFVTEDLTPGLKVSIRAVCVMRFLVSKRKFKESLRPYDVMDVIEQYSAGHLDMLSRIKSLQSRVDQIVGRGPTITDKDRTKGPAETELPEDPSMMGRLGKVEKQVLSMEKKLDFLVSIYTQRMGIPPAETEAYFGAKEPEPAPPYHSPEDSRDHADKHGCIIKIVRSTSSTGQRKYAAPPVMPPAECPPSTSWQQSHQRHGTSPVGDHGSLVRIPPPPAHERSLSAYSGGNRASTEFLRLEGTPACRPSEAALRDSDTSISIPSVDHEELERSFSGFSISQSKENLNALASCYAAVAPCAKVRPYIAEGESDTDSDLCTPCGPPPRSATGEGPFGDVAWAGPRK
KCNQ2 enhance baseline: also measured in KCNQ2 enhance; calls as there; B-score; compound at 10 µM; measured here: initial fluorescence intensity artifact check;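 brightness before thallium and not channel activity; 0 = typical well and far values either way flag optical interference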
Starred values were filed as active, the others as inactive. Only part of the results is shown; count on the stated rates, not on these rows.

KCNQ2 enhance baseline | KCNQ2 enhance | SMILES
-0.07 | 0.73 | CCNC(=O)c1ccc(NS(=O)(=O)c2ccccc2)cc1
-1.3 | 1.2 | Cn1c(=O)c2c(nc(NCc3ccco3)n2C)n(C)c1=O
-0.05 | 2 | COc1cc2[nH]c(=O)n(Cc3ccc(C(=O)NCCCN4CCC(C)CC4)cc3)c(=O)c2cc1OC
0.17 | 0.04 | CC(NC(=O)/C=C/c1ccco1)c1nc2ccccc2n1Cc1ccccc1F (stereo not drawn)
0.42 | 2.8 | Cc1cccc(Cn2c(C)nc3c(N)c(C)c(C)cc32)c1
-0.88 | 1.2 | COc1cc(CNc2cc(C)ccc2C)cc(OC)c1OC
-0.51 | 1.8 | CC(C)C(=O)Nc1cccc(C(=O)Nc2cc([N+](=O)[O-])ccc2F)c1
0.05 | 1.9 | COc1cc(NC(=O)c2cccnc2)ccc1NC(=O)c1ccccc1Cl
-0.05 | 0.14 | O=C(Cn1c(=O)n(-c2ccccc2)c(=O)c2oc3ccccc3c21)Nc1ccccc1
-0.49 | 1.2 | CC/C(=N/NC(=O)c1ccccc1O)c1c(C)[nH]n(-c2ccccc2)c1=O
0.46 | 0.22 | O=S(=O)(Nc1ccc(Br)cn1)c1cccs1
-0.03 | 0.97 | Cc1cccc(NC(=S)Nc2cccc(C(F)(F)F)c2)n1
0.06 | 0.3 | CC1(C)OC(=O)N2CCc3ccccc3C21C (stereo not drawn)
-0.04 | 2.1 | C=CCCc1ccc(C#N)c(SCc2c(C(=O)OCC)c3cc(OC(C)=O)c(Br)cc3n2C)n1
-1.2 | 0.6 | Oc1ccc(-c2nc3ccccc3s2)cc1
-0.13 | 1 | COc1nc(Nc2cccc([N+](=O)[O-])c2)nc(OC)n1
-2.9 | 0.09 | COc1ccc(-c2nn(-c3ccccc3)cc2C=O)cc1[N+](=O)[O-]
0.85 | 0.83 | COc1cc(/C=N/NC(=O)NC23CC4CC(CC(C4)C2)C3)ccc1OCC(N)=O
-0.18 | 1.6 | Oc1ccc(Oc2ncc(Cl)cc2Cl)cc1
0.64 | 0.62 | Cc1nc2sccn2c(=O)c1S(=O)(=O)Nc1ccc(N2CCOCC2)c(Cl)c1
-0.71 | 0.58 | CC(C)=NNc1nc2c(c(=O)[nH]c(=O)n2C)n1CCCc1ccccc1
-0.17 | 0.1 | O=C(c1ccccc1)c1ccc(N2CCCC2)cc1
0.08 | 0.52 | C=CCn1c(Cc2csc(N)n2)nnc1SCC(=O)Nc1ccccc1C(F)(F)F
0.02 | 0.24 | COc1cc2[nH]c(=O)n(Cc3ccc(C(=O)NCC4CCCO4)cc3)c(=O)c2cc1OC (stereo not drawn)

Profiles from above. Screens in order: KCNQ2 enhance baseline	KCNQ2 enhance
`CCNC(=O)c1ccc(NS(=O)(=O)c2ccccc2)cc1` in the list: -0.07	0.73
`O=S(=O)(Nc1ccc(Br)cn1)c1cccs1` in the list: 0.46	0.22
`O=C(c1ccccc1)c1ccc(N2CCCC2)cc1` in the list: -0.17	0.1
`Cc1nc2sccn2c(=O)c1S(=O)(=O)Nc1ccc(N2CCOCC2)c(Cl)c1` in the list: 0.64	0.62
`Oc1ccc(-c2nc3ccccc3s2)cc1` in the list: -1.2	0.6

(list continues)
KCNQ2 enhance baseline | KCNQ2 enhance | SMILES
-0.08 | 0.87 | CCCOc1ccc(Cn2c(=O)oc3ccc(C)cc32)cc1OC
-0.1 | 0.8 | OCCC1CN(Cc2cnc(-c3cccc4ccccc34)nc2)CCN1C1CCCCC1 (stereo not drawn)
-2.4 | 0.96 | Cc1nc(NC(=O)CN2CCCCC2)sc1C(=O)N(C)C
-0.66 | 0.1 | Fc1ccc2[nH]c3c(N4CCc5ccccc5C4)ncnc3c2c1
-0.14 | 0.33 | CCN(CC(=O)NC1CCS(=O)(=O)C1)S(=O)(=O)c1cc(Br)ccc1Br (stereo not drawn)
-0.24 | 1.8 | O=C(c1ccccc1F)N1CCN(c2ncccn2)CC1
-0.02 | 0.65 | Cn1c(Cn2c(=O)sc3ccccc32)nnc1SCC(=O)Nc1ccccc1F
-0.9 | 0.34 | CCCCCn1c(=O)[nH]c2cc(C(=O)N3CCN(CC)CC3)ccc2c1=O
0.06 | 1.5 | COc1ccc(C(=O)/C=C/Nc2cc(C)on2)cc1
-0.02 | 0.57 | COc1ccc(C(CNC(=O)Cc2c(F)cccc2Cl)N2CCCCC2)cc1 (stereo not drawn)
-0.19 | 0.37 | COc1ccc(-c2onc(C)c2-c2ccccc2)c(O)c1
0.83 | 0.91 | CC(=O)c1ccc(OCc2cc(C(=O)N3CCCCC3c3cccnc3)no2)cc1 (stereo not drawn)

The last 2 compounds of the part above are carried over, then new ones follow.
KCNQ2 enhance baseline | KCNQ2 enhance | SMILES
-0.19 | 0.37 | COc1ccc(-c2onc(C)c2-c2ccccc2)c(O)c1
0.83 | 0.91 | CC(=O)c1ccc(OCc2cc(C(=O)N3CCCCC3c3cccnc3)no2)cc1 (stereo not drawn)
-0.48 | 0.19 | CN(C)S(=O)(=O)c1cccc(C(=O)OCC(=O)N2CCCC2=O)c1
1.4 | 0.09 | COc1ccc2[nH]c3ccc(OC)cc3c2c1
1.1 | 0.86 | Cc1ccc(C23CC4CC(CC(NC(=O)NN)(C4)C2)C3)cc1
-2 | 0.15 | O=C(c1cc[n+]([O-])cc1)N1CCCC(N2CCN(c3cccc(C(F)(F)F)c3)CC2)C1 (stereo not drawn)
-0.56 | 0.43 | COc1ccc(Nc2nc3nonc3nc2N2CCCCC2)cc1
0.31 | 0.92 | O=C(COC(=O)c1ccco1)c1ccc(F)cc1
-0.17 | 0.53 | Cc1nn(C)c(Cl)c1CN1CCCC(CO)(Cc2ccccc2)C1 (stereo not drawn)
0.04 | 0.02 | COc1ccc(CCNC(=O)c2cc(-c3cc(C)ccc3O)n[nH]2)cc1OC
0.1 | 0.57 | O=C1c2ccccc2C(Nc2ccc(S(=O)(=O)N3CCOCC3)cc2)N1Cc1ccco1 (stereo not drawn)
0.25 | 0.71 | O=c1[nH]c2ccsc2c(=O)n1-c1ccc(F)cc1
0.28 | 0.24 | Cc1csc(NC(=O)Cc2c(F)cccc2Cl)n1
-0.23 | 0.43 | O=C(c1cc2ccccc2oc1=O)N1CCN(C(=O)C2CCCO2)CC1 (stereo not drawn)
-0.02 | 0.98 | CC1CN(C(=O)COC(=O)[C@@H]2CC(O)CN2S(=O)(=O)c2ccc3c(c2)OCCO3)CC(C)O1 (stereo partly drawn)
-1.2 | 1.6 | COc1cc(/C=N/NC(=O)c2sc(N)c(C#N)c2C)cc(Br)c1O
-0.09 | 1.5 | Cc1cc(C)cc(OCC(=O)O/N=C(\N)c2cccnc2)c1
-0.06 | 0.2 | CC(Sc1ncnc2ccccc12)C(=O)Nc1ccc2c(c1)OCCO2 (stereo not drawn)
-2.1 | 1 | CN1CCN(NC(=O)c2cccc(F)c2)CC1
0.26 | 1.4 | Cn1c(=O)c2nc3ccccc3nc2n(C)c1=O
1.1 | 0.21 | CC(C)c1nnc(NC(=O)CCC(=O)NCc2ccco2)s1
-0.87 | 2.5 | O=C(CSc1ncnc2c1cnn2-c1ccc(Cl)cc1)NCc1ccc2c(c1)OCO2
0.43 | 0.44 | CN(Cc1ccc(F)cc1)S(=O)(=O)c1nnc(NC(=O)c2ccccc2)s1
-1.4 | 0.71 | CSc1ccc(S(=O)(=O)Nc2c(C)n(C)n(-c3ccccc3)c2=O)cc1
1.2 | 0.03 | O=[N+]([O-])c1ccc(N/N=C2\CC3CC=CC23)c([N+](=O)[O-])c1 (stereo not drawn)
0.34 | 0.86 | Cc1cc(SCC(=O)OCC(=O)NCC2CCCO2)c(C)cc1Br (stereo not drawn)
1.7 | 0.2 | O=C(Cc1ccc(Br)c2ccccc12)N/N=C/c1ccccn1
1.9 | 0.02 | COCCNCC(=O)N1c2ccccc2Sc2ccccc21
-1.6 | 1.7 | Cc1ccc(C)c(C(=O)CSc2nc(N)cc(=O)[nH]2)c1
0.34 | 0.77 | CCOC(=O)CCCNC(=O)COC(=O)CCC(=O)c1ccc(F)cc1
-2.1 | 0.1 | Cc1ccc(S(=O)(=O)NCc2ccc(C(=O)NC3CCCCC3)cc2)cc1
0.04 | 1.4 | COc1ccnc(Nc2cccc(C)c2)c1C#N
-1.4 | 1.8 | CC(C)(C)N=C(NS(=O)(=O)c1cccs1)c1ccccc1
-0.01 | 0.9 | CN(C)CCN1CCc2ccccc21
-0.18 | 0.19 | CCn1cc(Br)c(C(=O)Nc2sc3c(c2C(N)=O)CCCC3)n1
-1.3 | 1.2 | O=C(NCc1n[nH]c(=O)c2ccccc12)C1CC(=O)N(c2ccc(Cl)cc2)C1 (stereo not drawn)
-3.3 | 1.5 | CCCN1C(=O)c2cc(C(=O)Nc3ccc(OC)cc3OC)ccc2C1Nc1ccc(OC)cc1OC (stereo not drawn)
0.51 | 1.4 | Cc1cc(C(F)(F)F)nn1C(=O)c1cccnc1Cl
0.02 | 0.39 | COc1ccc(S(=O)(=O)N2CCCCC2)cc1NC(=O)C1CCCO1 (stereo not drawn)
0 | 0.01 | CN(C(=O)CSc1cc(C(=O)c2nccn2C)c2ccccc2n1)c1ccccc1
-0.08 | 0.64 | Cc1ccc(NC(=S)N2CCN(S(=O)(=O)c3ccccc3)CC2)cc1C
-1.6 | 1.2 | CC(=O)Nc1nnc(SCc2ccc(C(=O)Nc3ccccc3F)cc2)s1
0.14 | 0.07 | Cc1nnc2ccc(-c3ccc(NC(=O)Cc4cccs4)cc3)nn12
-1.2 | 0.28 | CCOC(=O)C1=C(O)/C(=C\c2ccc(OC)c(OC)c2)N=C1C
0.05 | 0.31 | CC(C)CN1CCC(=O)N([C@H](CO)c2ccccc2)CC1
1.4 | 0.11 | Cc1cc(C)c2nc(C)cc(Nc3ccc(C(=O)N(C)C)cc3)c2c1
0.99 | 0.37 | O=C(Nc1ccccc1)/C(=C/c1ccc(O)cc1)NC(=O)c1ccco1
0.17 | 0.91 | Cc1ccc(-n2ncc3c(NCc4ccccn4)ncnc32)c(C)c1
-2.4 | 1.3 | CCOc1cc2nc(-c3ccc(OC)c(OC)c3)nc(NCCCN3CCOCC3)c2cc1OC
0.82 | 0.31 | COc1ccccc1/C=C/C=N/NC(=O)c1ccc(=O)n(C)c1
-0.81 | 0.81 | Cc1c(CC(=O)O)c(=O)oc2cc(OCc3ccc(F)cc3F)ccc12
0.41 | 0.89 | Cc1ccccc1NC(=S)Nc1cccc2cnccc12
-0.92 | 0.89 | O=C(CC1Sc2ccccc2NC1=O)OCc1cc(=O)oc2cc(O)ccc12 (stereo not drawn)
1.5 | 0.06 | COc1cccc(CN2CCNC(=O)C2CC(=O)N(C)CC2CCOCC2)c1OC (stereo not drawn)
2.3 | 0.29 | COc1ccccc1C(=O)NC(=O)COC(=O)c1ccc([N+](=O)[O-])cc1Cl
-1.6 | 0.63 | Cc1cc(NC(=O)CCC(=O)NNC(=O)c2ccc(C(C)(C)C)cc2)no1
0.03 | 0.28 | Cc1ccc(-n2ncc3c(NNC(=O)c4ccco4)ncnc32)cc1C
0.12 | 0.2 | COc1ccc(C)cc1NC(=S)NC12CN3CN(CN(C3)C1)C2
0.15 | 0.97 | Cc1nccn1-c1cc(C(C)(C)C)nc2c(-c3ccccc3)cnn12
1.4 | 1.1 | Cc1ccc(C(=O)N(CN2CCCC2=O)c2ccc(F)cc2)cc1
-0.42 | 1.9 | COc1ccc(OC)c(NC(=O)C2CCN(c3cc(-c4ccccc4)nc4ncnn34)CC2)c1
-1.2 | 1.6 | CCOC(=O)c1nc2sc3c(c2c(=O)[nH]1)CCCC3

Additional results follow.
KCNQ2 enhance baseline | KCNQ2 enhance | SMILES
0.03 | 0.09 | Nn1c(SCC(=O)N2CCOCC2)nnc1C1CC1
-0.41 | 1.6 | CC(=O)c1ccccc1OC(=O)COc1ccc(Cl)cc1C
0.09 | 0.06 | Cc1ccc(S(=O)(=O)N2CCC(C)CC2)cc1C(=O)NCc1ccccn1
2.4 | 1.8 | C=CCOc1ccccc1/C=N/O
-0.02 | 0.26 | CCOc1ccc(CCNC(=O)COC(=O)/C=C/c2ccc(C)o2)cc1OCC
-1.3 | 1.4 | O=C(O)c1cccc2c1C(=O)N(Cc1ccncc1)C2
-0.57 | 0.25 | COc1ccccc1OCC(=O)Nc1nc(-c2ccc(S(=O)(=O)N3CCOCC3)cc2)cs1
1.7 | 0.01 | CCOCCCNC(=O)c1ccc(CS(=O)(=O)c2cccc(C(F)(F)F)c2)o1
-0.95 | 0.04 | COc1ccc(OCc2cc(C(=O)N3C[C@@H](C)O[C@@H](C)C3)no2)c(Cl)c1
0.24 | 1.2 | CC1C(=O)C(C)(C)C(=O)OC1c1ccccc1 (stereo not drawn)
2.2 | 0.56 | COC(=O)Nc1ccc(Cn2cc(C(F)(F)F)ccc2=O)cc1
0.07 | 0.74 | COc1ccccc1N1CCN(C(=O)CSc2nc3ncnc(N)c3[nH]2)CC1
-1.2 | 0.85 | CN(c1cccc(NC(=O)CN(c2cccc(F)c2)S(C)(=O)=O)c1)S(C)(=O)=O
0.66 | 2.4 | C/C(=N\NC(=O)c1nnn(-c2nonc2N)c1CSc1ccc(Cl)cc1)c1cccnc1

Pulled one by one from the entries so far (two):
KCNQ2 enhance baseline | KCNQ2 enhance | SMILES
0.03 | 0.09 | Nn1c(SCC(=O)N2CCOCC2)nnc1C1CC1
0.66 | 2.4 | C/C(=N\NC(=O)c1nnn(-c2nonc2N)c1CSc1ccc(Cl)cc1)c1cccnc1
